Screens as filed in PubChem.
Mtb hypoxia rep: inhibitors of hypoxia-regulated fluorescent reporter in Mycobacterium tuberculosis | actives 0.1% (n = 300,000) | fluorescence inhibition, % (concentration not given with the values) | AID 1159583 | M. tuberculosis hypoxia-regulated fluorescent reporter, fluorescence;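 active = 35 to 45% if threefold the growth effect, above 45% if 1.5-fold the growth effect; inactive = the rest, general growth blockers included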;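 note: wells of about 50 µL received 100 nL stock; 0% = vehicle wells and 100% = reference inhibitor wells; whole bacteria with a GFP reporter of the hypoxia response; strong numbers were not always called active; many hits fall short of the cut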
ugtP null kill: growth inhibition of S. aureus ugtP deletion strain; S. aureus RN4220 ugtP deletion, OD600 growth, 16 h; some inactives read as strong as hits; growth inhibition, % (test concentration not listed); actives 0.54% (n = 330,000); AID 1259309;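 active = z-score under -3 and OD600 up to 0.15 on both plates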;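 note: plate controls were untreated wells for no effect and antibiotic for full effect; wells of about 80 µL received 100 nL stock; the first replicate is given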
BJeLR viability: BJeLR cell viability loss; AID 1554; BJeLR (HRASV12) viability, CellTiter-Glo ATP luminescence, 48 h; reference of the scale not given here; actives 0.17% (n = 300,000); inhibition, % (test concentration not listed);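 active = replicate mean above 50%; inconclusive = above 50% but judged a plate artefact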;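 note: 50 nL library stock added to about 25 µL; numbers are from one replicate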
Bead autofluor: flagged as autofluorescent in microsphere protease counterscreen | compound autofluorescence counterscreen, microsphere flow cytometry; hits give high values | fluorescence intensity (concentration not given with the values) | actives 3.1% (n = 360,000) | AID 624483;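 active = at least 3 SD above the mean of all compounds, about 16000 in these data; inconclusive = too few beads counted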;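 note: 100 nL of 1 mM stock went into each well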
RN4220 kill: kills Staphylococcus aureus RN4220. S. aureus RN4220 growth, OD600, 16 h. inhibition, % (no concentration beside the values). actives 0.33% (n = 330,000). AID 1259311;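 active = z-score of -3 or lower and OD600 up to 0.18 on both plates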;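 note: plate controls were untreated cells for no effect and reference antibiotic for full effect; stock transfer was 100 nL into about 80 µL; one replicate is shown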
PrP 5UTR inh: inhibition of PrP 5' UTR reporter expression | cell-based PrP 5' UTR mRNA reporter, plate reader | inhibition, % (no concentration beside the values) | actives 0.35% (n = 340,000) | AID 488862;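 active = every replicate at 50% or more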;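 note: 0 = median of the neutral control wells; tested in H4 reporter cells; numbers are from one replicate; inactives centre near -14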
Mtb hypoxia rep growth: also measured in Mtb hypoxia rep; calls as there; growth inhibition, %; measured here: M. tuberculosis growth (absorbance);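 0% = vehicle and 100% = reference antibiotic; read after six days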
The depositor's hits bear a star; ? = inconclusive; . = no result given; & = joins results of further samples. Compounds were not picked by outcome (roughly 4.1% active in at least one column).

SMILES	Mtb hypoxia rep	Mtb hypoxia rep growth	ugtP null kill	BJeLR viability	Bead autofluor	RN4220 kill	PrP 5UTR inh
COc1ccc(CCN(C)C(=S)Nc2ccc(SC(F)F)cc2)cc1OC	14	2	-2	1	3740	3.1	-7
CCN(CC)CCCN(Cc1cc2cc3c(cc2[nH]c1=O)OCO3)C(=S)Nc1ccccc1OC	12	5	6	7	3450	4.4	-21
CCOc1ncccc1C(=O)OCC(=O)N(CC(C)C)C1CCS(=O)(=O)C1 (stereo unspecified)	3	5	-2	-4	4806	0.0	-29
Cc1cc(C)nc(N2CCC(C(=O)Nc3cccc(C(F)(F)F)c3)CC2)n1	-1	-5	-6	7	17064*	0.6	3
CCOC(=O)c1c(NC=O)sc2c1CCC2	8	2	7	-4	9220	12	10
O=C(CCc1nnc2ccc(N3CCCCC3)nn12)NCc1ccco1	5	8	7	1	5216	2.0	-27
Cc1nn(Cc2ccc(F)cc2)c2sc(C(=O)Nc3nccs3)cc12	8	-6	-14	-5	2249	5.3	7
COc1cccc(C(C(=O)NC2CCCC2)N(C(=O)c2ccco2)C2CC2)c1OC (stereo unspecified)	16	12	-2	2	2805	-11	-48
Clc1nc2c(-c3ccccc3)nnn2c2ccccc12	.	.	.	24	6174	.	-15
Cc1cccc(C(=O)N(CC(=O)Nc2sc(C)c(C)c2C(N)=O)C2CCCC2)c1	-12	5	9	-3	4156	4.5	-19
C/C(=C\C(=O)c1ncc(C(F)(F)F)cc1Cl)N(C)C	11	10	2	1	4420	5.3	-54
CCn1c(=O)n(CC(=O)Nc2cc(OC)ccc2OC)c(=O)c2ccccc21	.	.	6	2	2230	4.5	-9
O=C(NCc1ccccc1)C1=CC(c2csc3ccccc23)CC(OCc2ccc(CO)cc2)O1 (stereo unspecified)	9&20	10&7	11&10	.	.	-6.5&-0.4	.
Clc1ccc(OCCOCCN2CCc3ccccc3C2)c(Cl)c1	-1	5	2	-6	3013	-5.5	-9
O=C(NN=Cc1cccc(Oc2ccccc2)c1)c1cccc(Br)c1	3	9	-6	.	.	-12	.

Compounds from the list above with four or more nitrogen atoms (five):
SMILES	Mtb hypoxia rep	Mtb hypoxia rep growth	ugtP null kill	BJeLR viability	Bead autofluor	RN4220 kill	PrP 5UTR inh
CCN(CC)CCCN(Cc1cc2cc3c(cc2[nH]c1=O)OCO3)C(=S)Nc1ccccc1OC	12	5	6	7	3450	4.4	-21
Cc1cc(C)nc(N2CCC(C(=O)Nc3cccc(C(F)(F)F)c3)CC2)n1	-1	-5	-6	7	17064*	0.6	3
O=C(CCc1nnc2ccc(N3CCCCC3)nn12)NCc1ccco1	5	8	7	1	5216	2.0	-27
Cc1nn(Cc2ccc(F)cc2)c2sc(C(=O)Nc3nccs3)cc12	8	-6	-14	-5	2249	5.3	7
Clc1nc2c(-c3ccccc3)nnn2c2ccccc12	.	.	.	24	6174	.	-15

Additional entries follow:
SMILES	Mtb hypoxia rep	Mtb hypoxia rep growth	ugtP null kill	BJeLR viability	Bead autofluor	RN4220 kill	PrP 5UTR inh
COc1ccc(C(=O)O/N=C(\N)c2ccc(Cl)cc2)cc1	5	-5	0	-10	3071	0.8	-69
N#CC(=NNc1ccc(Cl)cc1)C(N)=S	.	.	88*	.	.	81	.
C/C(=N\Nc1nc2ccccc2s1)c1cccs1	.	.	.	8	2351	.	-33
CCc1cc2c(N3CCCCC3)ncnc2s1	.	.	-2	2	4147	3.4	-25
Cc1ccc(S(=O)(=O)c2cnc(-c3ccccc3)nc2N2CCN(C)CC2)cc1	3	13	0	2	3227	-3.1	-1
CC(C)(C)c1ccc(C(=O)OCCN2CCCCC2)cc1	8	0	11	-1	3647	-0.2	-33
CN1CCN(c2nc(-c3ccc(Cl)s3)cs2)CC1	17	0	10	-3	5055	0.6	-27
COc1ccc2cc(C(C)C(=O)Nc3cccc(S(=O)(=O)N(C)C)c3)ccc2c1 (stereo unspecified)	9	-1	17	-2	6032	-5.0	-17
Cc1ccc(-c2nnc3c(C(F)(F)F)nc4ccccc4n23)cc1	.	.	-3	9	2384	0.6	-20
CCOC1OC(C(=O)N2CCN(Cc3ccc4c(c3)OCO4)CC2)=CC(C2CCCCC2)C1CCCO (stereo unspecified)	1&-4	-4&-2	7&-17	.	.	1.1&3.4	.
COc1cc(F)ccc1S(=O)(=O)N1CCN(C23CC4CC(CC(C4)C2)C3)CC1	7	6	-6	4	9403	9.8	-24
O=C(NCc1nnc(SCC(=O)N2CCCC2)o1)c1c(F)cccc1F	5	0	2	4	5824	1.0	-30
COc1ccccc1NC(=O)N1CCN(C(=O)c2ccco2)CC1	.	.	.	-20	5113	.	-22
O=C(NC1CCCCC1)C1CCN(c2cnccn2)CC1	9	-3	0	-8	?	-0.1	-22
COc1ccc(-c2cc(C)no2)cc1S(=O)(=O)Nc1ccccc1	-10	-2	-5	19	5946	0.5	-13
CN(c1cccc(NS(=O)(=O)c2ccccc2)c1)S(C)(=O)=O	2	17	3	10	4083	2.6	0
CC(NC(=O)c1[nH]cnc1C(=O)Nc1ccon1)c1ccccc1 (stereo unspecified)	-5&10	5&10	0&-14	.	.	6.0&9.5	.
CCCn1nnc(NC(=O)c2ccc(Br)o2)n1	21	13	8	-18	.	0.6	-31
C=C(C)Cn1c(SCCN2CCOCC2)nc2c1c(=O)[nH]c(=O)n2C	4	7	4	-3	3716	4.8	-7
O=C(N/C(=C/c1ccco1)C(=O)N1CCCC1)c1cccs1	9	9	5	1	9597	4.8	-7
COC(=O)CSc1nnc(NC(=O)C2CC(=O)N(c3ccc(F)cc3)C2)s1 (stereo unspecified)	2	4	5	5	5759	4.8	-6
COc1ccc(CN2CC(C(=O)NCCC(C)C)CC2=O)cc1 (stereo unspecified)	1	4	7	6	4548	1.1	-52
CCOC(=O)Cc1c(C)nc(SC)[nH]c1=O	14	6	-5	-4	4838	8.4	-9
Cc1ccc(CN2CCN(Cc3ccncc3)CC2CCO)o1 (stereo unspecified)	4	9	6	6	4575	2.9	-16
O=C(c1ccco1)N1CCN(Cc2cccc(F)c2)CC1	.	.	-1	-9	2798	1.5	-25
CCOC(=O)CSc1nnc(-c2ccc(OC)cc2)n1CC	12	12	-7	-5	3976	5.8	-11
O=C(O)c1cc(Nc2cc(Cl)c3nonc3c2[N+](=O)[O-])ccc1O	17	6	2	-2	4040	6.6	-29
Cn1c(=O)n(-c2ccc(Cl)cc2)c(=O)c2c3c(sc21)COC(C)(C)C3	9	15	-2	0	9480	0.6	-10
CSc1nc(O)c(C(c2ccc(F)cc2)c2c(O)nc(SC)[nH]c2=O)c(=O)[nH]1	7	7	9	-3	4351	4.9	.
O=C(Oc1ccc(-c2ccccc2)cc1)C1C2CCCCC21 (stereo unspecified)	4	7	2	-3	10035	1.4	-17
Cc1ccc(N2CC(C(=O)Nc3ccc4c(c3)OCO4)CC2=O)cc1C (stereo unspecified)	13	2	-10	-14	3187	-1.1	-14
Cc1ccc(Cn2nc(C)c(NC(=O)C3(C)CC3(Br)Br)c2C)cc1 (stereo unspecified)	4	9	-5	-9	4327	8.3	-23
Cc1cc(Cl)ccc1C(=O)C1CCCN(C(=O)c2cnn(C(C)C)c2)C1 (stereo unspecified)	10	0	-3	-3	5241	5.0	-14
CN(C)S(=O)(=O)c1ccc(N2CCCC2)c(C(=O)Nc2ccccc2F)c1	2	4	5	-1	5963	1.3	-13
COc1ccccc1C(=O)Nc1nnn(C)n1	1	-14	0	0	4166	-3.9	2
O=C(O)c1ccc(-n2nc(C(F)(F)F)cc2-c2cccs2)cc1	-10	-26	2	-1	2997	3.7	-9
O=C(/C=C/c1ccccc1)NC(=S)NNC(=O)c1cccnc1	0	3	-10	-11	4063	7.5	-6
COc1ccc(-c2[nH]ncc2N=Nc2ccccc2)cc1	-1	15	22	-3	4439	-13	-42
Cc1ccc(C(=O)COC(=O)c2c(C)cc(=O)oc2C)cc1[N+](=O)[O-]	-3	-4	4	-6	2076	3.4	-2
Cc1ccc(C)c(S(=O)(=O)NN=Cc2ccc(C(=O)O)cc2)c1	9	4	9	.	.	0.7	.
CC12CCC(C(=O)NC3CCCC3)(CC1=O)C2(C)C (stereo unspecified)	12	-5	6	-4	12325	4.0	-31
CC(=O)Nc1cccc(NC(=S)Nc2cccc(Cl)c2Cl)c1	19	1	-3	12	3270	7.0	-21
CCCNC(=O)NC(=O)CSc1nncs1	8	-3	5	22	3451	3.5	-5
CCOc1ccc(NC(=O)CC2C(=O)N(CC)C(=S)N2NC(=O)c2ccncc2)cc1 (stereo unspecified)	11	8	11	-3	3981	3.1	-11
CS(=O)(=O)Oc1ccc(Br)c2cccnc12	6	-16	12	-1	4010	5.5	-28

Fetched one by one from above (2):
SMILES	Mtb hypoxia rep	Mtb hypoxia rep growth	ugtP null kill	BJeLR viability	Bead autofluor	RN4220 kill	PrP 5UTR inh
CN1CCN(c2nc(-c3ccc(Cl)s3)cs2)CC1	17	0	10	-3	5055	0.6	-27
CCCNC(=O)NC(=O)CSc1nncs1	8	-3	5	22	3451	3.5	-5

The results go on:
SMILES	Mtb hypoxia rep	Mtb hypoxia rep growth	ugtP null kill	BJeLR viability	Bead autofluor	RN4220 kill	PrP 5UTR inh
COc1ccc(OCCC(=O)OCC(=O)NC(=O)NC(C)C)cc1	16	8	-4	-4	.	4.2	-15
CCN(CC)c1cnn(C/C(=N\OC)c2ccc(Cl)cc2)c(=O)c1Br	.	.	.	-2	3040	.	-9
COC(=O)c1cnc(Oc2ccc(NC(=O)NC(=O)c3c(OC)cccc3OC)cc2)cc1C(F)(F)F	19	4	8	11	3577	4.6	49
CCOC(=O)c1ccc(-c2c(-c3cc(OC)c(OC)c(OC)c3)noc2C)cc1F	8	3	2	12	4345	6.2	18
Cc1nn(C2CCS(=O)(=O)C2)c(C)c1CN(C)C(=O)c1ccc(S(=O)(=O)N(C)C)cc1 (stereo unspecified)	10	3	1	.	6817	1.4	-5
COC(=O)c1cc2c(s1)-c1ccccc1OC2	4	15	2	-11	5254	4.5	-23
CCOCCCn1c(SCC(=O)Nc2oc(C)c3c(C)n[nH]c(=O)c23)nnc1-c1ccncc1	4	0	11	1	6136	-0.5	-7
CCCCNC(=O)/C(=C/c1ccco1)NC(=O)c1ccco1	8	-3	-1	17	3300	1.1	-15
O=C(NC1CCCCCC1)C1CCN(C(=O)c2ccc(Cl)cc2)CC1	-1	3	-1	.	3432	2.3	6
CC(C)[C@H](NC(=O)c1ccccc1)C(=O)OCC(=O)NCC1CCCO1 (stereo partly specified)	8	0	4	.	4668	3.3	-11
CCn1cc(S(=O)(=O)c2ccc(C)cc2)c(=O)c2cc(F)c(N3CCN(C)CC3)cc21	6	-2	2	-4	5312	-1.0	-8
O=C(Nc1cc(=O)[nH]c(=O)[nH]1)c1cccc(C(F)(F)F)c1	5	4	0	-4	5084	0.4	-20
COc1ccc(OC)c(-c2csc3nnc(SCC(=O)Nc4ccc(NC(C)=O)cc4)n23)c1	9	7	3	-4	20934*	6.2	-19
Cc1cc(C)n(-c2ccc(C(=O)Nc3ccc4c(c3)OCCO4)cc2)n1	8	5	-21	-11	2586	-27	-28
CCN1C(=NCc2ccco2)N[C@@H](c2cccc(F)c2)C(C(=O)OC)=C1C	.	.	.	4	4203	.	2
CCCC12CN3CCN(CC(C3)/C1=N\NC(=O)c1ccc(C(C)(C)C)cc1)C2	.	.	.	5	2980	.	-1
CN(C)CCCCNCCCNC(=O)/C=N\O	.	.	.	5	8742	.	-17
O=C(CSc1ncnc2c1cnn2-c1ccccc1)NC1CCCC1	-3	11	4	6	6258	-1.6	-13
CN(CC(=O)O)S(=O)(=O)c1cccs1	8	3	5	-6	3632	2.0	-34
Cc1ccn2cc(-c3cccc(NC(=O)c4cccs4)c3)nc2c1	-5	-4	12	3	3312	1.3	-24
C=CCn1c(SCC(=O)Nc2ccc(S(N)(=O)=O)cc2)nnc1-c1cnccn1	-5	0	-6	4	4905	-3.5	2
CCc1ccccc1OCCCCN1CCCC1	.	.	4	26	4352	-2.2	-26
CCOc1ccc2[nH]c(=O)c(CN(CCc3ccccc3)C(=O)N3CCCC3)cc2c1	-6	-8	3	3	11392	3.5	-14
C=CCn1c(-c2c[nH]c3ccccc23)n[nH]c1=S	.	.	1	0	2823	2.7	-25
Oc1ccc(C(Cc2ccc3ccccc3n2)=NNc2ccccc2)c(O)c1	-14	-2	-10	.	.	-7.2	.
COc1cccc(/C=C2\SC(=O)N(CC(=O)NC3C=CS(=O)(=O)C3)C2=O)c1 (stereo unspecified)	2	0	2	-5	4091	2.3	2
O=C(CCCOc1ccccc1)N1CCc2ccccc2C1	0	2	8	-1	3958	7.6	-33
